LASV entry inh: qHTS for Inhibitors of binding or entry into cells for Lassa Virus | 300,000 compounds, 1.2% hits | Potency, µM (titrated, usually from 37.9 µM), for inactives: at the highest dose activity change, negative = inhibition, most hits filed as inhibitors | AID 540256, 2011 | Lassa virus pseudotype entry inhibition, cell reporter; control for the full effect not named in the record; active means well fitted inhibition curve with a large enough effect; inconclusive means small, poorly fitted or top-dose-only effect, or effect the other way; inactive means flat fitted curve, though single readings scatter; tested in HEK293 cells; also: % is scaled to controls: 0 for no effect and ±100 for the full control effect; nearly all actives have a fitted effect of over 50% in size; luciferase read-out
SARS PLpro yeast: qHTS of Yeast-based Assay for SARS-CoV PLP. 330,000 compounds, 0.19% hits. Potency, µM (series often up to 32.9 µM), for the others: top-dose activity, positive = growth rescue. AID 485353, 2010. S. cerevisiae expressing SARS-CoV PLpro, growth rescue; control for the full effect not named in the record; active means well fitted rising curve with a large enough effect; inconclusive means small, poorly fitted or top-dose-only effect; inactive means no such curve, though single readings can be large or run the other way; also: 0% is about no effect; nearly all actives have a fitted effect of over 55% in size; growth read by luminescence after 48 h
RE007 growth inh: qHTS Assay for Inhibitors of the HIV-1 protein Vpr | S. pombe RE007 Vpr strain, BacTiter-Glo ATP luminescence, 24 h; control for the full effect not named in the record | AID 651644, 2012 | Potency, µM (highest dose often 92.2 µM), inactives show at the highest dose activity change, negative = less growth | 360,000 compounds, 0.21% hits; active = well fitted falling curve with a large enough effect; inconclusive = small, poorly fitted or top-dose-only effect; inactive = no such curve, though single readings can be large or run the other way;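 also: % is scaled to controls: 0 for no effect and ±100 for the full control effect; nearly all actives have a fitted effect of over 50% in size; the assay follows cell death caused by Vpr and the record does not say whether a fall means rescue or toxicity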
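Fission yeast strain RE007, carrying one chromosomally integrated HIV-1 vpr copy, was seeded at OD 0.01 in PMG+AL medium with 23 nL pinned compound. After 24 h at 30 °C and 99% humidity, viability was read by BacTiter-Glo luminescence.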
Cruzain inh Det: qHTS Assay for Promiscuous and Specific Inhibitors of Cruzain (with detergent); purified cruzain, Z-FR-AMC fluorescence, 0.01% Triton; Potency, µM, for the others: max response, negative = inhibition, hits mostly inhibitors; Cruzipain (Trypanosoma cruzi), P25779; AID 1478, 2009; 200,000 compounds, 0.43% hits;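 also: plate controls were neutral wells for no effect and buffer without enzyme for full effect; nearly all actives have a fitted effect of over 40% in size; top concentration of the series not given in the record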
Target sequence (P25779 123-467 limits assumed): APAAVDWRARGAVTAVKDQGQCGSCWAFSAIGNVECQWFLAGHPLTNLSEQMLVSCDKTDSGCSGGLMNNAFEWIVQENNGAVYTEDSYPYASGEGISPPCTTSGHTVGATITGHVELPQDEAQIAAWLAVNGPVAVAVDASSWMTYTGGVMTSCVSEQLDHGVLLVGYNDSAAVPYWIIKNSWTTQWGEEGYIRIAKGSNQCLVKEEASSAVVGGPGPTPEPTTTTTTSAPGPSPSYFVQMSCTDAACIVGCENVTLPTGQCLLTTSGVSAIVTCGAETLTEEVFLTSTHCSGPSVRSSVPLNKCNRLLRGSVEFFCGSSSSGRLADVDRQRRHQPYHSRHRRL
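Cysteine protease activity tested under reducing, mildly acidic conditions (100 mM sodium acetate pH 5.5, 5 mM DTT) plus 0.01% Triton X-100. Cruzain 1.5 nM; substrate Z-FR-AMC 2 uM; 15 min compound preincubation at room temperature.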
MARV entry inh: qHTS for inhibitors of binding or entry into cells for Marburg Virus; Marburg virus pseudotyped entry inhibition, cell reporter; control for the full effect not named in the record; about a third of the inactives were read at about 46 µM; Potency, µM (titrated, usually from 37.8 µM), without a hit: top-dose activity change, negative = inhibition, actives largely listed as inhibitors; 300,000 compounds, 1.8% hits; active = well fitted inhibition curve with a large enough effect; inconclusive = small, poorly fitted or top-dose-only effect, or effect the other way; inactive = flat fitted curve, though single readings scatter; tested in HEK293 cells; about a fifth of its hits are not listed in these tables; also: % is scaled to controls: 0 for no effect and ±100 for the full control effect; luciferase read-out
Cruzain inh noDet: qHTS Assay for Promiscuous and Specific Inhibitors of Cruzain (without detergent) | purified cruzain, Z-FR-AMC fluorescence, no detergent | Potency, µM, inactives show max response, negative = inhibition, actives largely listed as inhibitors | 200,000 compounds, 2.3% hits;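 also: plate controls were enzyme without inhibitor for no effect and buffer without enzyme for full effect; nearly all actives have a fitted effect of over 40% in size; top concentration of the series not given in the record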
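Detergent-free condition (0.00005% Triton X-100) in acetate buffer pH 5.5 with DTT. 1.5 nM enzyme and compound were pre-mixed 15 min, then 2 uM Z-FR-AMC substrate added; reaction progress from fluorescence change between first and third reads (60 s).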
NS1 inh: qHTS Assay for Inhibitors of Influenza NS1 Protein Function; Potency, µM (titrated, usually from 46.1 µM), without a hit: at the top dose activity, positive = more growth; S. cerevisiae slowed by influenza A NS1, growth recovery by OD600; 270,000 compounds, 0.4% hits; AID 2326, 2010; active means well fitted rising curve with a large enough effect; inconclusive means small, poorly fitted or top-dose-only effect; inactive means no such curve, though single readings can be large or run the other way; also: nearly all actives have a fitted effect of over 50% in size
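A cell-based growth assay was used: compounds that relieve NS1-induced slow growth of budding yeast raise OD600. Assay medium was yeast nitrogen base with ammonium sulphate and -URA supplement, pH 6.0, with 2% galactose.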
StopGo reporter: High Throughput Screening for Foot and Mouth Disease Virus Antivirals; human cells with a luciferase reporter of 2A StopGo recoding; control for the full effect not named in the record; 410,000 compounds, 1.2% hits; AID 1159524, 2015; Potency, µM (top dose mostly 57.9 µM), for inactives: at the highest dose signal change, negative = less light; active = well fitted falling curve with a large enough effect; inconclusive = small, poorly fitted or top-dose-only effect; inactive = no such curve, though single readings can be large or run the other way; tested in HEK293T cells; also: % is scaled to controls: 0 for no effect and ±100 for the full control effect; nearly all actives have a fitted effect of over 45% in size; luciferase light after 4 h
* = called active by the depositor; ? = inconclusive; . = not tested or not shown; & = joins results of further samples; [ ] = another dose, or the depositor's remark. Unless noted, calls follow the shape of the dose curve; as a rule, active = well fitted curve in the direction sought with a large enough effect; inconclusive = small, poorly fitted or top-dose-only effect, or another doubt; inactive = no such curve, though single readings can be large; an effect the other way counts as inactive or inconclusive. Potency is read from the fitted curve at half-maximal effect.

structure,RE007 growth inh,MARV entry inh,NS1 inh,SARS PLpro yeast,StopGo reporter,LASV entry inh,Cruzain inh noDet,Cruzain inh Det
COc1ccc(OC)c(CNC(=O)c2cnc3c(C)cccn3c2=O)c1,.,.,.,.,-7.2%,-6.5%[46.1 µM],10.2%,2.1%
COc1cc(C(=O)N2CCC(NC(=O)C(Cc3ccc(C(C)C)cc3)NC(C)=O)CC2)cc(OC)c1OC (centres undefined),-19.6%,12.8%,1.4%,-3.5%,-14.4%,0.1%,?,2.3%
CC(=O)NC12CC3CC(C1)CC(C(=O)OCC(=O)Nc1ncc(Cl)cc1Cl)(C3)C2,3.5%,-25.0%&-25.0%,-0.6%,-5.7%,-4.6%,-0.9%,-5.9%,-4.6%
N#CC(c1ccc(Cl)cc1)c1cccc(Cl)n1 (centres undefined),9.6%,-4.4%[46.1 µM],.,-3.1%,-23.7%,14.9%[46.1 µM],.,.
Cc1nn(CC(=O)Nc2ccc(N(C)C)cc2)c(C)c1[N+](=O)[O-],3.6%,?,14.7%,13.9%,-5.8%,5.7%,6.4%,7.2%
Cc1cc(C)c2cc(CN(Cc3cccnc3)C(=O)c3ccc(F)cc3)c(Cl)nc2c1,12.5%,?,-86.8%,-3.5%,?,?,24.5%,-8.9%
CC(=O)c1cccc(NS(=O)(=O)c2ccc(C(=O)Nc3ccccc3)cc2)c1,5.4%,?,15.4%,4.2%,-13.0%,?,.,.
Cc1ccc(S(=O)(=O)N2CCOCC2)cc1NC(=O)COC(=O)Cc1ccccc1,21.5%,7.4%[46.1 µM],.,4.0%,-7.0%,-8.4%[46.1 µM],.,.
COc1ccc(S(=O)(=O)NCc2ccco2)cc1C(=O)N1CCCCC1,2.1%,3.1%[46.1 µM],6.2%,1.1%,56.4%[activator],2.0%,.,.
COc1ccccc1CNC(=O)C1CCC(=O)N(CCCN2CCCC2=O)C1 (centres undefined),11.2%,.,0.3%,-2.1%,-0.5%,.,.,.
O=C(O)c1c(Cl)c(Cl)c(Cl)c(Cl)c1C(=O)N1CCCC1,7.9%,9.5%[46.1 µM],5.5%,1.4%,-5.3%,16.6%,-6.2%,-0.2%
COc1ccccc1NC(=O)C1=C(C)Nc2nc(SCc3ccccc3)nn2C1c1cccs1 (centres undefined),.,?,.,.,-14.5%,?,12.7%,0.5%

Grouped by structure, the compounds so far containing four or more nitrogen atoms (2)
structure,RE007 growth inh,MARV entry inh,NS1 inh,SARS PLpro yeast,StopGo reporter,LASV entry inh,Cruzain inh noDet,Cruzain inh Det
Cc1nn(CC(=O)Nc2ccc(N(C)C)cc2)c(C)c1[N+](=O)[O-],3.6%,?,14.7%,13.9%,-5.8%,5.7%,6.4%,7.2%
COc1ccccc1NC(=O)C1=C(C)Nc2nc(SCc3ccccc3)nn2C1c1cccs1 (centres undefined),.,?,.,.,-14.5%,?,12.7%,0.5%

Later entries:
structure,RE007 growth inh,MARV entry inh,NS1 inh,SARS PLpro yeast,StopGo reporter,LASV entry inh,Cruzain inh noDet,Cruzain inh Det
CCC(=O)c1ccccc1OCCCN1CCC(Cc2ccccc2)CC1,-6.9%,?,-21.8%,-4.0%,-1.3%,?,.,.
COc1ccc(NS(=O)(=O)c2cc(C(=O)OC(C)C(=O)N3CCOCC3)ccc2Cl)cc1 (centres undefined),0.8%,?,.,-0.8%,33.0%[activator],-9.1%,.,.
CCOCCCNC(=S)N1CCCN(c2nc3cc(C)ccc3cc2C#N)CC1,-0.4%,3.7%[46.1 µM],.,10.6%,0.3%,-5.1%[46.1 µM],.,.
COc1cc(OC)cc(C(=O)Nc2ccc(CN3CCCCC3)cc2)c1,2.8%,11.2%,8.7%,1.9%,4.3%,10.9%,.,.
O=C(Nc1ccc(F)c(F)c1)C1CCCN1S(=O)(=O)c1cccc2nsnc12 (centres undefined),.,2.0%[46.1 µM],.,.,-21.8%,4.3%[46.1 µM],-2.3%,-0.5%
COc1ccc(NC(=O)Nc2ccc(Br)c(C)c2)cc1,-5.2%,?,0.0%,-0.7%,0.0%,-0.7%,.,.
C#Cc1cccc(C(=O)NC2CCCN(C3Cc4ccccc4C3)C2)c1 (centres undefined),-14.8%,.,4.5%,10.7%,-4.2%,.,.,.
O=C(c1ccccc1)C(O)(Cc1ccccc1)c1ccccc1 (centres undefined),9.6%,23.4%,.,.,12.0%,2.0%,.,.
COc1ccc(C2=NOC(C(=O)NCc3ccc(F)cc3)C2)cc1 (centres undefined),-3.2%,6.9%,-58.0%,5.5%,-6.0%,?,3.9%,1.7%
COc1cc2c(cc1OC)C(c1ccc(OC)c(OC)c1OC)CC(=O)N2 (centres undefined),-9.1%,.,6.5%,-9.7%,-3.8%,.,.,.
COC(=O)Cc1c(O)ccn(Cc2ccc(OC)c(OC)c2)c1=O,-11.5%,24.3%[46.1 µM],1.3%,-0.1%,-4.9%,14.7%,.,.
O=C(COC(=O)c1ccco1)c1ccc(Cl)cc1,13.7%,?,-6.1%,-3.1%,11.5%,7.2%[46.1 µM],.,.

(listing goes on)
structure,RE007 growth inh,MARV entry inh,NS1 inh,SARS PLpro yeast,StopGo reporter,LASV entry inh,Cruzain inh noDet,Cruzain inh Det
CCOCCCn1c(=NC(C)=O)c(C#N)cc2c(=O)n3ccccc3nc21,?,1.8%[46.1 µM],-0.8%,0.9%,10.3%,-0.5%,.,.
Cc1cc(=O)[nH]c(SCC(=O)c2ccc3c(c2)NC(=O)CO3)n1,20.0%,-9.7%[46.1 µM],3.3%,1.0%,2.3%,4.1%[46.1 µM],.,.
CC1CCCN(S(=O)(=O)c2ccc(NC(=O)C3CC(=O)N(C(C)(C)C)C3)cc2)C1 (centres undefined),-15.9%,0.7%,.,3.8%,-12.3%,0.6%[46.1 µM],.,.
Cn1ccc(C(=O)N/N=C/c2c[nH]c3ccccc23)n1,-0.1%,4.7%[46.1 µM],-0.4%,1.9%,23.2%,11.5%,.,.
O=C(CSc1nnc2ccccn12)Nc1ncc(Cl)cc1Cl,21.4%,0.0%,-10.6%,4.8%,3.4%,17.7%,1.9%,-1.2%
CC(=O)N1c2ccc(S(=O)(=O)NCC3CCC(C(=O)NCCC(C)C)CC3)cc2CC1C (centres undefined),.,.,.,.,-23.1%,-5.2%[46.1 µM],11.0%,0.4%
Cc1cc(C)c(Cn2c3ccccc3c3cnn(CC(=O)N4CCCCC4)c(=O)c32)c(C)c1,.,-3.2%[46.1 µM],.,.,-7.7%,?,?,-4.3%
CC(O)(CS(=O)(=O)Cc1cccc(C(F)(F)F)c1)C(=O)Nc1cccc(C(F)(F)F)c1 (centres undefined),-7.6%,-20.0%,18.3%,1.7%,-14.2%,-19.1%,14.8%,-11.1%
CCC(C)N(C(=O)Cn1c(Cl)nc2c1c(=O)n(C)c(=O)n2C)C1CCS(=O)(=O)C1 (centres undefined),14.2%,?,3.7%,1.1%,-18.0%,-0.7%,.,.
COc1cc(C(=O)NCC(c2cccs2)N(C)C)cc(Cl)c1OC(C)C (centres undefined),.,-37.8%,-3.5%,5.4%,29.6%,?,-10.9%,-1.2%
COC(=O)c1ccc(C2NC(C(=O)O)CS2)cc1 (centres undefined),-6.1%,1.1%,1.2%,-9.7%,0.0%,-0.3%,5.6%,4.9%
CCN(CC)S(=O)(=O)c1cccc(-c2n[nH]c(=S)n2CC(C)C)c1,0.0%,11.2%[46.1 µM],.,4.7%,-1.8%,5.3%,.,.

Additional records.
structure,RE007 growth inh,MARV entry inh,NS1 inh,SARS PLpro yeast,StopGo reporter,LASV entry inh,Cruzain inh noDet,Cruzain inh Det
O=C(Nc1cc([N+](=O)[O-])ccc1O)c1cccc([N+](=O)[O-])c1,-0.3%,?,3.2%,-0.4%,28.9%,10.5%[46.1 µM],.,.
Cc1c(NC(=O)c2ccc3nsnc3c2)cccc1[N+](=O)[O-],-8.6%,.,1.9%,-10.7%,-7.4%,.,.,.
CN1CCN(C(=O)CN(C2CCCCC2)S(=O)(=O)c2ccc(Br)cc2)CC1,3.1%,-20.4%,3.0%,-9.5%,-5.1%,-26.0%,.,.
CCOc1ccc(C(=O)NNC2CC(=O)N(Cc3ccc(Cl)cc3)C2=O)cc1OC (centres undefined),-0.9%,23.7%,.,-1.1%,-19.5%,12.7%,.,.
CN(C)c1ccc(C(=O)c2ccccc2C(=O)O)cc1[N+](=O)[O-],1.8%,14.8%[46.1 µM],.,-0.3%,-15.6%,-0.2%[46.1 µM],.,.
CCC(C)NC(=O)C1(NC(=O)Nc2ccccc2)CCCCC1 (centres undefined),-3.9%,11.9%,.,0.0%,0.1%,1.2%,.,.
Cc1cc(SCC(=O)N2CCCC2)nc2ccccc12,-5.6%,2.0%,-10.2%,-0.3%,3.2%,4.7%,4.1%,-1.6%
CCn1c(SCC(=O)Nc2cc(S(=O)(=O)N3CCOCC3)ccc2OC)nnc1-c1ccncc1,11.9%,.,14.0%,0.4%,-6.6%,.,.,.
Cc1cc(-n2c(C)cc(C(=O)CSc3ccccn3)c2C)no1,-16.4%,?,.,-19.9%,30.3%[activator],-9.9%[46.1 µM],.,.
Cc1ccc(S(=O)(=O)N(C)CC(=O)N2CCCC2)cc1,2.0%,21.7%,1.1%,0.8%,6.0%,-5.3%,2.1%,-2.1%
CCCCn1cnc2c(SCc3ccc(Cl)cc3)nc(N)nc21,9.0%,?,.,.,-8.9%,0.0%[46.1 µM],.,.
O=C(Cc1cccs1)Nc1cccc(C(=O)Nc2ccc(C(=O)O)cc2)c1,-5.0%,22.8%[46.1 µM],2.3%,0.1%,?,6.0%,.,.
Cc1ccc2nc(Cc3ccc(N)cc3)oc2c1,22.8%,?,6.7%,3.1%,0.0%,9.1%,-8.3%,-2.3%
